Source: PubChem (Southern Research Institute)
Mtb growth: Mycobacterium tuberculosis H37Rv growth inhibition, putative kinase inhibitor library, confirmatory dose response (AID 2842); M. tuberculosis H37Rv growth inhibition; higher % means a stronger effect; some inactives read as strong as hits; inhibition, % at 10 µg/mL; hits with a dose series show IC90 in µg/mL; actives 5.2% (n = 24,000);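 active = confirmed in a dose series; about a fifth of its hits are not listed in these tables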;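 note: bacteria incubated one week before Alamar blue readout; 0% = bacteria only wells and 100% = bacteria with high antibiotic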
* = called active by the depositor. A portion of the library (hit frequency here may not be typical).

SMILES	Mtb growth
Cc1ccc(-c2nnc(NC(=O)c3ccc(S(=O)(=O)N4CCc5ccccc5C4)cc3)o2)c(C)c1	-10%
O=C(NCC1CCCO1)NC1CC(=O)N(c2ccc(F)cc2)C1 (stereo not drawn)	0%
O=C(Nc1nnc(-c2ccc(Cl)s2)o1)C1CC1	27µg/mL*
Cn1cnc([N+](=O)[O-])c1Sc1ncnc2nc[nH]c12	0%
CC1=C(C(=O)Nc2cccc(C)c2)C(c2ccc(Cl)cc2Cl)NC(=O)N1 (stereo not drawn)	-2%
O=C(COc1ccccc1)Nc1nc(-c2ccc3c(c2)CCCC3)cs1	0%
Cc1nn(-c2ccccc2)c(Cl)c1C(=O)O	-2%
COc1cccc(-n2c(=O)[nH]c3c(C(N)=O)nc(-c4ccccc4OC)nc32)c1	6%
COc1cccc2cc(C(=O)Nc3ccccc3)/c(=N/NS(=O)(=O)c3ccc(F)c(C)c3)oc12	-3%
CCN1CCc2c(sc(NC(=O)c3cc4c(ccc5ccccc54)oc3=O)c2C(N)=O)C1	-2%
Cc1ccc2c(c1)NC(=O)c1cc(NS(=O)(=O)c3ccc(C)c(Cl)c3)ccc1O2	43%
CCOc1cc(/C=N/Nc2nnc(-c3ccccc3)c(=O)[nH]2)ccc1O	-3%
Cc1ccc(-c2c3c(nc4sc(C(=O)Nc5cccc(F)c5)c(N)c24)CCCC3)o1	4%
Cc1ccc(C)c(-c2nnc(NC(=O)c3ccc(Cl)cc3)o2)c1	23µg/mL*
Cc1ccc(Nc2ncnc3c2cnn3Cc2ccccc2Cl)cc1Cl	2%
Cc1ccc(C(=O)Nc2sc3c(c2C(N)=O)CCCCC3)c(C)c1	57%
CCc1ccc2c(c1)c(=O)c(S(=O)(=O)c1ccccc1)cn2CC(=O)Nc1cc(C)ccc1C	-1%
COc1ccc(Cl)cc1NC(=O)CSc1nc2c(c(=O)n1-c1ccc(Cl)cc1)SCC2	9%
CCOc1ccc2c(c1)O/C(=C\c1cccc(OS(C)(=O)=O)c1)C2=O	-12%
Cc1ccc(C(=O)Nc2c(N)nc(SCC(=O)Nc3cc(C)ccc3C)[nH]c2=O)cc1	-18%
CC(=O)Cn1c(=O)c2c(nc3n(-c4ccc(C)cc4)c(-c4ccccc4)cn23)n(C)c1=O	-9%
CCOc1ccc(NC(=O)COc2cccc3c2CCN(C)C3=O)cc1	32%
COc1cc2nc(NC(=O)COc3ccc(Cl)cc3)sc2cc1OC	-1%
NC(=O)c1nc(-c2ccc(Cl)c(Cl)c2)nc2c1[nH]c(=O)n2-c1ccccc1F	24%
Cc1ccsc1/C=N/NC(=O)CNC(=O)c1c(F)cccc1Cl	-1%

Taken from the listing, four compounds:
SMILES	Mtb growth
O=C(Nc1nnc(-c2ccc(Cl)s2)o1)C1CC1	27µg/mL*
Cn1cnc([N+](=O)[O-])c1Sc1ncnc2nc[nH]c12	0%
CC1=C(C(=O)Nc2cccc(C)c2)C(c2ccc(Cl)cc2Cl)NC(=O)N1 (stereo not drawn)	-2%
O=C(COc1ccccc1)Nc1nc(-c2ccc3c(c2)CCCC3)cs1	0%

More results.
SMILES	Mtb growth
COc1cccc(N2CCCn3c2nc2c3c(=O)[nH]c(=O)n2C)c1	-15%
CCOc1ccccc1C(=O)Nc1c2c(nn1-c1ccc(OC)cc1)CSC2	60%
Cc1ccc(NC(=O)CN2C(=O)/C(=C\c3cccs3)SC2=S)cc1	-13%
COCCCNc1nc2c(-c3ccc(Cl)cc3)nnn2c2ccccc12	-9%
CCN(CC)c1ncnc(N)c1[N+](=O)[O-]	3%
CC(=O)Nc1nnc(-c2ccccc2C)s1	-2%
CCOC(=O)C(C)Sc1ncnc2c1nnn2Cc1ccc(F)cc1 (stereo not drawn)	0.51µg/mL*
O=C(O)c1ccccc1SC1CC(=O)N(c2ccc(Cl)cc2Cl)C1=O (stereo not drawn)	-6%
O=C(Nc1ccc2c(c1)C(=O)NC2=O)c1ccc(Cl)s1	-4%
O=C(NC(c1ccccc1)c1ccccc1)c1cnc2n(c1=O)CCS2	8%
COC(=O)CSc1nnc(CNC(=O)c2ccccc2F)n1-c1ccccc1	-14%
Cc1ccc(C)c2[nH]c(=O)c(CCNC(=O)c3ccc(S(=O)(=O)N4CCCCC4)cc3)cc12	33%
Cc1cc(C)c(C#N)c(SCC(=O)Nc2nccs2)n1	-3%
CCc1ccccc1NC(=O)c1cnc2scc(C)n2c1=O	9%
CCc1ccccc1NC(=O)CSc1nncc(=O)[nH]1	-1%
COc1ccc(/C=N/Nc2ncnc3nc[nH]c23)cc1OC	14%
COc1ccc(-c2nnc(SCC(=O)Nc3cc(C)on3)o2)cc1	6.7µg/mL*
COc1cccc(-c2nc(C(N)=O)c3[nH]c(=O)n(-c4ccccc4F)c3n2)c1	-10%
Cc1cccn2c(=O)c(/C=C(\C#N)C(=O)NC3CCCC3)c(Oc3ccccc3F)nc12	2%
Cc1c(Cc2ccc3c(c2)OCO3)sc(NC(=O)/C=C/c2cccs2)c1C#N	6%
CCOc1ccc(/C=C2\Oc3c(ccc(O)c3CN3CCCC3)C2=O)cc1	-8%
COc1ccc2c(C)cc(SCC(=O)Nc3ccc4c(c3)OCO4)nc2c1	6%
O=C1c2ccncc2C(=O)N1CNc1ccc(Cl)cc1	2%
CCOC(=O)C(C)Sc1ncnc2c1cnn2-c1ccc(F)cc1 (stereo not drawn)	4.7µg/mL*
CCOc1ccc(NC(=O)c2oc3ccccc3c2NC(=O)c2cc(Cl)ccc2OC)cc1	7%

More records:
SMILES	Mtb growth
CC(C)C(=O)Nc1nnc(-c2ccc(Cl)cc2)s1	11%
COc1ccccc1NC1=C(Cl)C(=O)N(c2ccc(Cl)c(Cl)c2)C1=O	-2%
Cc1ccc(C)c2[nH]c(=O)c(CCNC(=O)c3cc(Br)ccc3Cl)cc12	1%
O=C(O)c1ccccc1SC1CC(=O)N(c2ccc(Cl)cc2)C1=O (stereo not drawn)	-11%
OCCNc1ncnc2c1cnn2-c1ccc(Cl)c(Cl)c1	45%
O=C(O)c1cccnc1SC1CC(=O)N(c2ccc(Cl)c(C(F)(F)F)c2)C1=O (stereo not drawn)	-14%
C=CCNC(=O)C(=O)Nc1cc2c3c(c1)CCC(=O)N3CCC2	-2%
COc1ccc(/C=C/c2nc3ccccc3[nH]c2=O)cc1	3%
CCOc1ccc(-c2nnc3ccc(SCc4ccccn4)nn23)cc1	8%
O=C(CSc1ncnc2c1oc1ccccc12)Nc1cccc2ccccc12	-8%
Cc1ccc(C(=O)Nc2nnc(-c3ccncc3)o2)cc1	13µg/mL*
CCCc1cc(=O)[nH]c2nnc(SCc3cccc(Cl)c3)n12	-9%
COc1ccc(NC(=O)c2oc3ccccc3c2NC(=O)/C=C\c2ccccc2)cc1	3%
O=C(NC1CC(=O)N(c2ccc3c(c2)OCCO3)C1)NC(c1ccccc1)c1ccccc1 (stereo not drawn)	9%
O=C(CC(c1ccccc1)c1ccccc1)Nc1c(C(=O)Nc2ccc(Cl)cc2)oc2ccccc12	11%
CC(=O)NC(=O)c1cc2cc(Cl)ccc2oc1=Nc1cccc2ccccc12	-7%
CC(C)CNS(=O)(=O)c1ccc2nc(NC(=O)c3ccccn3)sc2c1	2%
Cc1ccc(C(c2sc3ncnn3c2O)N2CCC(C(N)=O)CC2)cc1 (stereo not drawn)	1%
Cc1ccc(C)c(-c2nnc(NC(=O)c3cccc(F)c3)o2)c1	31µg/mL*
O=C(CC1CCS(=O)(=O)C1)Nc1ccc([N+](=O)[O-])cc1 (stereo not drawn)	-4%
NC(=O)c1ccc(NC(=O)CSc2nc3ccccc3o2)cc1	-14%
COc1cccc(C2NC(=O)NC(C)=C2C(=O)Nc2ccccc2)c1 (stereo not drawn)	-9%
N#Cc1c(NC(=O)CSc2nc3sc4c(c3c(=O)n2-c2ccccc2)CCCC4)sc2c1CCCC2	2%
CC(=O)c1sc(NC(=O)COc2ccc(Cl)cc2Cl)nc1C	4%
Cc1nc2sc(C(N)=O)c(N)c2c(-c2ccccc2)c1C(=O)Nc1ccccc1	2%

Carrying on:
SMILES	Mtb growth
Cc1cccc(-c2nnc(NC(=O)c3ccc(Cl)cc3)s2)c1	9%
Cc1ccc(C)c2[nH]c(=O)c(CCNC(=S)NCCn3ccc4ccccc43)cc12	3.5µg/mL*
CCOC(=O)c1sc2nc3c(c(-c4ccc(OC)cc4)c2c1N)CCC3	9%
C=CCSc1nc2sc3c(c2c(=O)[nH]1)CCCC3	-5%
Cc1ccccc1-n1c(SCC(=O)O)nc2c([nH]c3ccccc32)c1=O	4%
CCONC(=O)Nc1ccccc1[N+](=O)[O-]	0%
NS(=O)(=O)c1ccc(CCNc2nc3c(-c4cccc(F)c4)nnn3c3ccccc23)cc1	-8%
COc1ccc(Cl)cc1N/C=C(\C#N)c1nc(-c2ccc(OC)c(OC)c2)cs1	-1%
COc1ccc2nc(-c3ccc(F)c(NC(=O)CC4CCCC4)c3)cn2n1	10%
CCOC(CNc1ncnc2c1cnn2-c1ccc(C)c(Cl)c1)OCC	8%
COc1ccc(CCC(=O)Nc2c(C(=O)Nc3ccc(OC)c(OC)c3)oc3ccccc23)cc1	-1%
O=C(Nc1nnc(-c2ccccc2)s1)c1cc(Br)ccc1Cl	1%
CC1=C(C(=O)Nc2ccccc2C)C(c2ccc(C)o2)n2c(s/c(=C/c3ccc(C)o3)c2=O)=N1 (stereo not drawn)	11%
Cc1ccc(NC(=O)CC2Sc3ccccc3NC2=O)cc1C (stereo not drawn)	4%
Cc1onc(-c2ccccc2Cl)c1C(=O)Nc1nnc(-c2ccccc2)s1	9%
COC(=O)CSC1=C(C#N)C(c2ccccc2F)CC(=O)N1 (stereo not drawn)	-9%
Cc1cc(NC(=O)CSc2nc(N)c(NC(=O)c3ccccc3)c(=O)[nH]2)no1	2%
Cn1c(=O)c2c(nc(N3CCN(c4cccc(Cl)c4)CC3)n2CCSc2nc3ccccc3o2)n(C)c1=O	3%
Cc1ccnc(SCCn2c(N3CCN(Cc4ccccc4)CC3)nc3c2c(=O)n(C)c(=O)n3C)n1	16%
O=C(Nc1nc(-c2ccc(Br)cc2)cs1)c1cccc(Cl)c1	3%
N#CC1=C(N)Oc2c(oc(CO)cc2=O)C1c1ccco1 (stereo not drawn)	1%
Cc1ccc(-c2nnc(NC(=O)C(C)Sc3nncn3C)s2)cc1 (stereo not drawn)	-3%
COC(=O)c1c(NC(=O)c2cccs2)sc2c1CCCC2	10%
Cc1n[nH]c(C)c1CCC(=O)N/N=C/c1ccco1	-10%
COc1ccccc1NC(=O)CSc1nnc2sc3ccccc3n12	2%

Molecules above with a furan ring, fused or not (9):
SMILES	Mtb growth
Cc1ccc(-c2c3c(nc4sc(C(=O)Nc5cccc(F)c5)c(N)c24)CCCC3)o1	4%
CCOc1ccc(NC(=O)c2oc3ccccc3c2NC(=O)c2cc(Cl)ccc2OC)cc1	7%
O=C(CSc1ncnc2c1oc1ccccc12)Nc1cccc2ccccc12	-8%
COc1ccc(NC(=O)c2oc3ccccc3c2NC(=O)/C=C\c2ccccc2)cc1	3%
O=C(CC(c1ccccc1)c1ccccc1)Nc1c(C(=O)Nc2ccc(Cl)cc2)oc2ccccc12	11%
COc1ccc(CCC(=O)Nc2c(C(=O)Nc3ccc(OC)c(OC)c3)oc3ccccc23)cc1	-1%
CC1=C(C(=O)Nc2ccccc2C)C(c2ccc(C)o2)n2c(s/c(=C/c3ccc(C)o3)c2=O)=N1 (stereo not drawn)	11%
N#CC1=C(N)Oc2c(oc(CO)cc2=O)C1c1ccco1 (stereo not drawn)	1%
Cc1n[nH]c(C)c1CCC(=O)N/N=C/c1ccco1	-10%

Back to the main list; the three compounds before the break are reprinted first.
SMILES	Mtb growth
COC(=O)c1c(NC(=O)c2cccs2)sc2c1CCCC2	10%
Cc1n[nH]c(C)c1CCC(=O)N/N=C/c1ccco1	-10%
COc1ccccc1NC(=O)CSc1nnc2sc3ccccc3n12	2%
COC(=O)c1ccc2nc(NC(=O)Cc3ccccc3)sc2c1	70%
CNc1nnc(CSc2nc3ccccc3s2)s1	10%
Cc1cc(C)cc(-n2nnc3c(=O)n(CC(=O)Nc4ccc5c(c4)OCCO5)cnc32)c1	0%
O=C(CSc1ncnc2c1nnn2Cc1ccc(Cl)cc1)NCc1ccco1	-2%
CCOC(=O)c1nn(-c2ccccc2)c(=O)c2c(NC(=O)c3ccc(OCC)c(OCC)c3)scc12	33%
CCc1ccccc1NC(=O)NC1CC(=O)N(c2cccc(OC)c2)C1 (stereo not drawn)	5%
CCc1ccc(NC(=O)CSc2ccc3nnc(-c4ccc(C)cc4)n3n2)cc1	0%
Cc1nc2c(ccc3nc(NC(=O)c4ccc(C(C)(C)C)cc4)sc32)s1	3.2µg/mL*
CC(=O)Cc1nsc(NC(=O)c2cc(-c3ccc(Cl)cc3Cl)oc2C)n1	1%
O=C(COc1ccccc1)Nc1nc(-c2nc3ccccc3s2)cs1	0%
CC(Sc1ccccc1)C(=O)Nc1nnc(-c2ccccc2Cl)s1 (stereo not drawn)	2%
Cc1ccc(-c2nnc(NC(=O)c3ccc(Cl)s3)o2)c(C)c1	2µg/mL*
COc1cc([N+](=O)[O-])ccc1NC(=O)c1ccc(N2C(=O)c3ccccc3C2=O)cc1	5%
Cc1ccc2cc(CCNC(=O)c3ccc(Cl)c([N+](=O)[O-])c3)c(=O)[nH]c2c1C	5%
CCOC(=O)C1=C(C)N(CC)C(=O)NC1c1cccc(F)c1 (stereo not drawn)	-1%
Cc1ccccc1-c1nc(C(N)=O)c2[nH]c(=O)n(-c3ccc(C(C)(C)C)cc3)c2n1	6%
CS(=O)(=O)c1cccc(-c2nnc(NC(=O)c3ccccc3F)o2)c1	-15%
CCOc1cc(C(=O)Nc2nnc(-c3cccc(C)c3)s2)cc(OCC)c1OCC	7%
COc1ccc(C(=O)Nc2nnc(-c3ccccc3)s2)cc1OC	16%
Cc1cccc(C)c1NC(=O)C(=O)Nc1cc2c3c(c1)CCC(=O)N3CCC2	69%
CN(C)S(=O)(=O)c1ccc(C(=O)Nc2nnc(-c3ccc(Cl)cc3)s2)cc1	-1%
Cc1ccc(NC(=O)c2oc3ccccc3c2NC(=O)c2ccc3c(c2)OCO3)cc1C	10%
CCC(=O)Nc1nnc(-c2cccs2)o1	17µg/mL*
COC(=O)c1ccc(C(=O)NC(=S)Nc2sc3c(c2C#N)CCC(C)C3)cc1 (stereo not drawn)	-2%
